Mtb MbtI inh = inhibitors of Mycobacterium tuberculosis siderophore enzyme MbtI; purified MbtI enzyme, fluorescence intensity read-out; P9WFX0; inhibition, %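 (about 17 µg/mL by stock and volumes)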; AID 493033; hit rate 0.89% among 100,000;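 active = above 50% in both replicates, above 80% if mildly self-fluorescent; inactive = the rest, strongly fluorescent compounds included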;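 note: 0% = mean of negative and 100% = mean of positive controls; one replicate is shown; some compounds called inactive have numbers as strong as hits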
Polio RdRp inh = inhibitors of poliovirus RNA polymerase binding and polymerization; % elongation, % (compound at 16.7 µg/mL); poliovirus polymerase elongation, fluorescence polarization; hits give low values; hit rate 0.66% among 150,000; AID 588519; in the data active = % elongation below about 90%; note: some results filed as inactive read as strong as hits
Target sequence (P03300 1749-2209 limits assumed): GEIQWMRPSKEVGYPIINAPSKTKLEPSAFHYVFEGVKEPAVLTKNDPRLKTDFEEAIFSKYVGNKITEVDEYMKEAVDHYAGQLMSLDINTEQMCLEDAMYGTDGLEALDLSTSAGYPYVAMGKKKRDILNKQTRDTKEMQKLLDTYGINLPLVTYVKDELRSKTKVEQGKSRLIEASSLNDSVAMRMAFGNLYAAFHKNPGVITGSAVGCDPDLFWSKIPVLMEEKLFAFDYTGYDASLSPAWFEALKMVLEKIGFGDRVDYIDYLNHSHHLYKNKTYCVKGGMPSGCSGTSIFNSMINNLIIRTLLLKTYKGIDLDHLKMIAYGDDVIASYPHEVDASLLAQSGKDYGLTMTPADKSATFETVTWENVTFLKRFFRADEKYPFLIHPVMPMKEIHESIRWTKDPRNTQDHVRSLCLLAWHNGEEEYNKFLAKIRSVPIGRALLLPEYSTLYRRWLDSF
Mtb MenB inh = inhibitors of Mycobacterium tuberculosis MenB enzyme; MenB enzyme assay, absorbance read-out; some hits fall short of the stated cut; inhibition, %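 (about 12 µg/mL by stock and volumes)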; hit rate 0.43% among 100,000;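 active = mean of two replicates above 30%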;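 note: 0% = no compound and 100% = wells with inactive enzyme; the first replicate is given; strong numbers were not always called active; inactives centre near -10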
Target sequence (P9WNP5 whole entry, looked up): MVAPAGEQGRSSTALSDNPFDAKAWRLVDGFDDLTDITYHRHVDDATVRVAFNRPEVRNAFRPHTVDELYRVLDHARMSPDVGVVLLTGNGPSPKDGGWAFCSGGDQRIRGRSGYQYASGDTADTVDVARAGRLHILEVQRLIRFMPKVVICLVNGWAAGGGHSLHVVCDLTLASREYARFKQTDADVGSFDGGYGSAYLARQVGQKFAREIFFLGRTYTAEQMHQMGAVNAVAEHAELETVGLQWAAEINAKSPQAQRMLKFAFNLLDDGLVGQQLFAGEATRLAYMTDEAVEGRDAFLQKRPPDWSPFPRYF
Polio RdRp inh intensity = second read-out of Polio RdRp inh, no call of its own (marks repeat the call); % elongation; measured here: total intensity read-out; formula for this scale not given here;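 total fluorescence in place of polarization; lower means less elongation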
Starred values were filed as active, the others as inactive; x = not tested or not shown; & = joins results of further samples.

Codes – A = Mtb MbtI inh; B = Polio RdRp inh; C = Polio RdRp inh intensity; D = Mtb MenB inh
(1) O=C(CCc1ccccc1)Nc1nnc(CCN2CCCCC2)s1
  A: -5; B: 102; C: 100; D: 12
(2) CC1CCCC(C)N1NC(=O)c1ccc(-c2nc3ccccc3s2)o1 (stereo not drawn)
  A: 46; B: 101; C: 111; D: -12
(3) Cc1[nH]c2ccccc2c1C=NC1CCS(=O)(=O)C1 (stereo not drawn)
  A: 0; B: 102; C: 103; D: x
(4) O=C(Nc1nnc(C2CCCCC2)s1)C1c2ccccc2Oc2ccccc21
  A: 0; B: 101; C: 104; D: -4
(5) CC(C)C(=O)n1nc(-c2ccc(Cl)cc2)nc1NCc1ccccc1
  A: 0; B: 101; C: 105; D: -28
(6) COC(CNC(=O)C1CCN(C(=O)c2cc3oc(C)cc3n2Cc2c(F)cccc2Cl)CC1)OC
  A: 20; B: 100; C: 104; D: 2
(7) O=C(CSc1n[nH]c(=O)n1Cc1ccccc1)NC1CC1
  A: -10; B: 102; C: 97; D: -23
(8) COc1ccc2nc(NC(=O)c3ccccn3)sc2c1
  A: 13; B: 102; C: 100; D: -23
(9) CNC(=O)NC(=O)CSc1nc2sccc2c(=O)n1-c1ccccc1
  A: 17; B: 104; C: 107; D: -20
(10) CCC(=O)NC(=S)Nc1cccc(NC(=O)c2ccco2)c1
  A: 5; B: 102; C: 102; D: -24
(11) Cc1ccc(C)c(NC(=O)CS(=O)(=O)c2c[nH]c3ccccc23)c1
  A: -2; B: 99; C: 102; D: 11
(12) COc1ccc(C(=O)Nc2ccccc2C2(C)CC2)cc1
  A: x; B: 97; C: 101; D: -2
(13) COC(=O)c1cc(-c2cccc(Br)c2)no1
  A: -5; B: 105; C: 102; D: 0
(14) Cc1nc(CSc2nncs2)cs1
  A: 80*; B: 83*; C: 88*; D: -40
(15) CC(OC(=O)Cn1ccc(=O)[nH]c1=O)c1ccccc1Cl (stereo not drawn)
  A: 7; B: 111; C: 106; D: -18
(16) O=C(Cn1c(=O)cnc2ccccc21)N1CCCCC1
  A: -44; B: 103; C: 101; D: -4
(17) Cc1cc(-n2c(=S)[nH]c3ccccc3c2=O)ccc1Br
  A: -5; B: 103; C: 101; D: -19
(18) CS(=O)(=O)Nc1cccc(-c2nc3cccnc3s2)c1
  A: -1; B: 97; C: 102; D: 0
(19) CCOc1cc(C(Nc2cccnc2)c2ccc3cccnc3c2O)ccc1O (stereo not drawn)
  A: 104; B: 99; C: 116; D: -69
(20) Cc1ccc(-c2cc(-c3ccccc3)nc(=O)[nH]2)cc1
  A: -82; B: 104; C: 102; D: -94
(21) Cc1sc2nc(COC(=O)C3CCN(S(=O)(=O)c4cccs4)CC3)[nH]c(=O)c2c1C
  A: 2; B: 117; C: 141; D: -26
(22) Cc1ccc(C(=O)N2CCc3ccccc32)cc1Br
  A: -5; B: 104; C: 106; D: x
(23) COc1ccccc1OCCOc1ccc(-c2nc3sc4c(c3c(=O)[nH]2)CCCC4)cc1
  A: 13; B: 103; C: 104; D: -14
(24) CCN(CC)S(=O)(=O)c1ccc(Cl)c(C(=O)Oc2ccc(C)c(C)c2)c1
  A: 4; B: 45*; C: 43*; D: -36
(25) CC/C=C\C/C=C\C/C=C\CCCCCCCCCC(=O)O
  A: -5; B: 98&101; C: 104&102; D: 1
(26) O=C(O)c1cc(O)[nH]c(=O)c1
  A: 102; B: 79; C: 105; D: -57
(27) COc1ccc(-n2c(C)cc(C3N=C(N)Nc4nc5ccccc5n43)c2C)cc1 (stereo not drawn)
  A: 28; B: 102; C: 100; D: -6
(28) CN1CCN(/N=C2/C=C(c3ccccc3)C(O)(c3ccccc3)C2)CC1 (stereo not drawn)
  A: -3; B: 105; C: 111; D: -23
(29) O=C(c1cc2ccccc2o1)c1cnc2ccccn12
  A: 5; B: 102; C: 102; D: -14
(30) CC(C)(C)OC(=O)N1CC2C(C1)C2NC(=O)c1nsc(Cl)c1Cl (stereo not drawn)
  A: -7; B: 104; C: 103; D: -73
(31) COc1cc(CN2CCOCC2)ccc1O
  A: -5; B: 104; C: 102; D: -21
(32) Cc1ccccc1-c1nnn(C/C(N)=N/O)n1
  A: -15; B: 102; C: 103; D: -9
(33) Cc1ccc(C(=O)COc2nc(C)nc3ccccc23)cc1
  A: -6; B: 100; C: 104; D: 11
(34) CC(=O)N1CCCc2cc(S(=O)(=O)N3CCCC3)ccc21
  A: 2; B: 102; C: 97; D: -11
(35) O=C(O)c1ccc(CO)o1
  A: 10; B: 101; C: 102; D: 8
(36) O=C(Nc1nonc1OCCOc1nonc1NC(=O)c1ccccc1)c1ccccc1
  A: x; B: 104; C: 112; D: -12
(37) O=C(Nc1ccccc1-c1nc2ccccc2s1)c1ccccc1
  A: 8; B: 99; C: 100; D: -2
(38) N#CCC(=O)Nc1ccccc1Oc1ccccc1
  A: -6; B: 103; C: 106; D: x
(39) CCOc1ccc(NCc2n[nH]c(=S)n2-c2ccc(C)cc2)cc1
  A: 1; B: 103; C: 99; D: -44
(40) C1CCCN(c2nc(N3CCCCCC3)nc(N3CCCCCC3)n2)CC1
  A: 0; B: 101; C: 99; D: -16
(41) CON(C)c1nc(OCCNC(=O)OCc2ccc(Cl)cc2Cl)nc(N(C)C)n1
  A: -12; B: 99; C: 104; D: -33
(42) O=C(O)C1CCCCC1C(=O)NCc1cn2ccccc2n1 (stereo not drawn)
  A: 103; B: 101; C: 111; D: 7
(43) CCOC(=O)C1(CC)C(=O)OC(C(=O)NC2CCCCC2)C1C (stereo not drawn)
  A: -15; B: 105; C: 101; D: -7
(44) O=c1c2cccnc2n(Cc2ccc(F)cc2)c(=O)n1Cc1ccc2c(c1)OCO2
  A: -9; B: 99; C: 107; D: 3
(45) CC(C)CN1C(=O)N(c2ccccc2)C(=O)C1CC(=O)Nc1ccccc1 (stereo not drawn)
  A: 7; B: 100; C: 107; D: 0
(46) O=C(O)CN1CCN(C(c2ccccc2)c2ccccc2)CC1
  A: -15; B: 102; C: 100; D: -12
(47) CC(=O)Nc1sc2c(c1C(=O)O)CCc1ccccc1-2
  A: 28; B: 99; C: 101; D: -20
(48) CCN(C(=O)Cc1nc(-c2ccc(OC)cc2)no1)c1ccccc1
  A: -19; B: 103; C: 102; D: -14
(49) COc1ccc(-c2csc(N3CCCC3C(=O)OCc3ccccc3)n2)cc1 (stereo not drawn)
  A: x; B: 106; C: 105; D: -11
(50) O=C1CCC2(C(=O)OCc3nc4ccccc4s3)Sc3ccccc3N12 (stereo not drawn)
  A: -2; B: 110; C: 119; D: -1
(51) COC(=O)c1ccc(-c2nn(C)c(=O)c3ccccc23)cc1
  A: 2; B: 101; C: 103; D: -1
(52) Cc1ccc(C)c(NCc2ccccc2CO)c1
  A: x; B: 104; C: 111; D: -19
(53) O=c1oc(-c2ccc(F)cc2)nn1CN1CCCC2CCCCC21 (stereo not drawn)
  A: -71; B: 100; C: 98; D: -4
(54) Oc1ccccc1-c1nc2ccccc2o1
  A: -11; B: 102; C: 106; D: x
(55) CN(C)C(=S)SCC(=O)N1N=C(c2ccc(Cl)cc2)CC1c1ccco1 (stereo not drawn)
  A: 1; B: 107; C: 111; D: -16
(56) CCc1ccc(N2C(=O)CC(Sc3ccccc3N)C2=O)cc1 (stereo not drawn)
  A: -1; B: 98; C: 95; D: -4
(57) Cc1ccc(C(=O)C(CC(=O)Nc2ccc(F)c(F)c2)c2nc3ccccc3[nH]2)cc1 (stereo not drawn)
  A: -3; B: 103; C: 102; D: x
(58) Cc1cccc(N2CCN(C(=O)c3ccc(NC(N)=O)cc3)CC2C)c1 (stereo not drawn)
  A: -6; B: 101; C: 100; D: -36
(59) CON(C)CC(=O)Nc1cc(Cl)cc(Cl)c1
  A: -6; B: 108; C: 105; D: -5
(60) CCn1c(=O)c(NC(=O)c2ccccc2)c2n(c1=S)CCCCC2
  A: -13; B: 97; C: 103; D: -20

Continued (6 carried over from the part before).
Codes – A = Mtb MbtI inh; B = Polio RdRp inh; C = Polio RdRp inh intensity; D = Mtb MenB inh
(55) CN(C)C(=S)SCC(=O)N1N=C(c2ccc(Cl)cc2)CC1c1ccco1 (stereo not drawn)
  A: 1; B: 107; C: 111; D: -16
(56) CCc1ccc(N2C(=O)CC(Sc3ccccc3N)C2=O)cc1 (stereo not drawn)
  A: -1; B: 98; C: 95; D: -4
(57) Cc1ccc(C(=O)C(CC(=O)Nc2ccc(F)c(F)c2)c2nc3ccccc3[nH]2)cc1 (stereo not drawn)
  A: -3; B: 103; C: 102; D: x
(58) Cc1cccc(N2CCN(C(=O)c3ccc(NC(N)=O)cc3)CC2C)c1 (stereo not drawn)
  A: -6; B: 101; C: 100; D: -36
(59) CON(C)CC(=O)Nc1cc(Cl)cc(Cl)c1
  A: -6; B: 108; C: 105; D: -5
(60) CCn1c(=O)c(NC(=O)c2ccccc2)c2n(c1=S)CCCCC2
  A: -13; B: 97; C: 103; D: -20
(61) CCOc1ccc(NC(=O)C23CC4CC(CC(C4)C2)C3)cc1
  A: -14; B: 105; C: 105; D: x
(62) CCCNC(=O)Nc1ccc2c(c1)oc1ccccc12
  A: x; B: 106; C: 107; D: -11
(63) COc1cc2nc(N3CCN(C(=O)C4CCCO4)CC3)nc(N)c2cc1OC (stereo not drawn)
  A: -240; B: 100; C: 101; D: 7
(64) c1ccc(Oc2cccc(CSc3ncn[nH]3)c2)cc1
  A: -6; B: 100; C: 98; D: -15
(65) Cc1cccc(NC(=O)CSc2nnc3ccccn23)c1
  A: 39; B: 101; C: 100; D: -5
(66) N#C/C(=C\c1c(Oc2ccccc2)nc2ccccn2c1=O)S(=O)(=O)c1ccccc1
  A: -4; B: 103; C: 106; D: -100
(67) Clc1cccc(C=Nc2ccc(N3CCOCC3)cc2)c1Cl
  A: 12; B: 103; C: 102; D: -6
(68) CCCN(CCC)C(=O)c1cc2c(=O)n(CC)c3ccccc3c2s1
  A: -24; B: 100; C: 102; D: -12
(69) CC(NC(=O)c1nn(C)c(=O)c2ccccc12)c1ccc(F)cc1 (stereo not drawn)
  A: -5; B: 100; C: 109; D: -30
(70) CCOCCC(=O)Nc1nccs1
  A: -4; B: 99; C: 102; D: -10
(71) O=C(Oc1ccc(-c2ccccc2)cc1)c1ccco1
  A: -8; B: 103; C: 105; D: -31
(72) N#CCCN(C1CCCCC1)S(=O)(=O)c1cccc2nsnc12
  A: -1; B: 104; C: 109; D: 0
(73) N#Cc1ccc(Cl)cc1N=Cc1cccs1
  A: -5; B: 103; C: 103; D: x
(74) CC(=O)Oc1c(Br)cc2oc(=O)sc2c1Br
  A: 91*; B: 99; C: 97; D: -65
(75) CC1CC(C)CN(CCCNC(=O)c2ccc3c(c2)N(C)CCS3)C1 (stereo not drawn)
  A: 42; B: 101; C: 101; D: -5
(76) COCCc1nnc(N)s1
  A: -2; B: 101; C: 103; D: 11
(77) O=C(Nc1nc(-c2ccccc2)cs1)C1CCC1
  A: 10; B: 100; C: 101; D: -29
(78) Cn1ccc(-c2cc(C(=O)O)c3ccccc3n2)n1
  A: 54; B: 100; C: 102; D: -6
(79) CC1(C)CC(=O)c2c(SCCOC(=O)c3ccccc3Cl)sc(C#N)c2C1
  A: -7; B: 104; C: 109; D: -27
(80) CCCSc1nnc2c3ccccc3n(CC)c2n1
  A: -3; B: 100; C: 106; D: -3
(81) Cc1ccc(SCC#N)cc1C
  A: 0; B: 97; C: 105; D: -36
(82) CC1=CC(=O)C2(C)C3CCC4CC(=O)CCC4(C)C3=CCC2S1(=O)=O (stereo not drawn)
  A: 3; B: 98; C: 100; D: -7
(83) CCOC(=O)C1CCN(C(=O)c2ccc3c(c2)CCCN3S(C)(=O)=O)CC1
  A: -13; B: 103; C: 102; D: -4
(84) C=C(C)c1c2c(c(Cl)c3ccccc13)C[N+](CC)(CC)C2
  A: 10; B: 102; C: 98; D: -10
(85) CN(C)Cc1cc(C(C)(C)C)cc(CN(C)C)c1O
  A: 5; B: 101; C: 104; D: -1
(86) O=c1oc2ccccc2cc1-c1cn2cc(Cc3cccc(C(F)(F)F)c3)sc2n1
  A: 7; B: 100; C: 103; D: 6
(87) Cc1cccc2cc(CN(CC3CCCO3)C(=O)CC(C)(C)C)c3nnnn3c12 (stereo not drawn)
  A: 9; B: 100; C: 101; D: -1
(88) CC(C)SCc1nc2ccccc2[nH]1
  A: -8; B: 103; C: 103; D: x
(89) CC(=O)Nc1ccc2c(c1)nc(CN1CCCC1)n2C
  A: -13; B: 103; C: 108; D: -18
(90) COc1ccc2[nH]c(=O)c(CN(Cc3cccnc3)C(=O)Nc3ccccc3)cc2c1
  A: 19; B: 100; C: 102; D: -18
(91) O=c1[nH]c(SCc2ccccc2)nc2nc[nH]c12
  A: -4; B: 101; C: 103; D: 2
(92) CS(=O)(=O)N1CCN(c2ccc(N)cc2)CC1
  A: 40; B: 100; C: 101; D: -32
(93) CC1CCN(Cc2ccccc2CO)CC1
  A: 14; B: 103; C: 91; D: -18

Profiles as entered above. Order of values: Mtb MbtI inh	Polio RdRp inh	Polio RdRp inh intensity	Mtb MenB inh
`Cc1ccc(SCC#N)cc1C` across the screens: 0	97	105	-36
`COc1ccc2[nH]c(=O)c(CN(Cc3cccnc3)C(=O)Nc3ccccc3)cc2c1` across the screens: 19	100	102	-18

Assay outcomes: PubChem, ICCB-Longwood Screening Facility, Harvard Medical School
